# Compound activity (PubChem BioAssay)
# Tg IFNy HTS: T. gondii growth inhibition with IFN-gamma, primary screen, cell-based; Toxoplasma gondii growth in IFN-gamma-treated host cells; hits give low values; reference of the scale not given here; activity change, negative = inhibition, %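 (about 20 µM by stock and volumes)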; hit rate 3.8% among 69,000; AID 1259416, 2018;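 active means below -70%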;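 further: host cells are HeLa cells infected with Toxoplasma gondii; parasite growth read as luciferase light; one replicate is shown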
# * marks the source's active call; other numbers are inactive results; i = inactive. Only part of the results is shown; the hit share may differ from the screen's.
mol	Tg IFNy HTS
Cc1ccc(Nc2nc(C(=O)NCCC(C)C)nc3ccccc23)cc1	-87.2*
COc1ccc(Cc2cc(=O)[nH]c(NCCc3cnccn3)n2)cc1	13.4
COc1cc(OC)c(NC(=O)C2=C(C)C(=O)OC23CCN(C(C)C)CC3)cc1Cl	42.7
Cc1cccc2c1C(NC(=O)c1cccc3ccnn13)C(=O)N2 (stereo not drawn)	57.9
Cc1cc(Nc2ccc(C(=O)O)cc2)nc(N)n1	68.2
N#C[C@H]1N[C@H](CO)[C@H]1c1ccc(C#CC2CCCCC2)cc1	42.4
COc1ccccc1N(Cc1nc(-c2ccc(OC(C)C)cc2)oc1C)S(=O)(=O)c1ccccc1	-20.2
O=C1N(CC2CCC2)CCCC1(O)CNCc1ccc2c(c1)OCCCO2 (stereo not drawn)	4.7
O=C(NCCc1csc(-c2ccc(F)cc2)n1)C(=O)Nc1ccc(F)cc1F	14.4
CSc1sc(C(=O)N2CCc3ccccc32)cc1S(=O)(=O)C(C)C	33.4
CCc1ccc(S(=O)(=O)c2cnc(N3CCC(C(N)=O)(N4CCCCC4)CC3)nc2N)cc1	-78.4*
CC(CC(=O)N1CCN(S(=O)(=O)N2CCOCC2)CC1)n1cnc2ccccc21 (stereo not drawn)	2.3
COc1cc(C(=O)N[C@@H]2c3ccccc3[C@H]3CN(C(C)=O)C[C@H]32)ccn1	2.8
Cc1ccc(CN2CCCC3(CCN(C(=O)C4CC4)CC3)C2)cc1	177.2
CCC(=O)N[C@@H]1CC[C@H](CC(=O)NCc2ccccc2F)O[C@H]1CO	11.3
O=C(c1cccc(F)c1)N1CCC2(CC1)Nc1ccccc1-n1cccc12	44.5
COc1ccc(-c2nc(C)c(CCNC(=O)c3ccc(C)cc3)s2)cc1	i
CCC(CC)C(=O)N1CCC2(CC1)CN(C/C=C/c1ccco1)CCN2C	-4.4
N#C[C@@H]1[C@@H](c2ccccc2)[C@@H](CO)N1S(=O)(=O)c1cccc(F)c1	12.7
CCc1ccc(Nc2nc(C(=O)NCc3ccc(N(C)C)cc3)nc3ccccc23)cc1	142.1
COC(=O)c1ccc(Cl)cc1NC(=O)N1CCC2(CC1)Nc1cc(F)ccc1-n1cccc12	i
CCn1nc(C)c(Cn2ccnc2-c2cc(OC)c3c(c2)OCO3)c1C	6.9
C[C@@H]1CN([C@H](C)CO)C(=O)CCCn2cc(nn2)CO[C@H]1CN(C)C(=O)CCC(F)(F)F	-50.0
Cc1nc(CN2CCc3c(COCCN(C)C)cncc3C2)cs1	-10.0
Cc1ccc(C)c(OCCN(C)C(=O)C2CCCNCC2)c1C (stereo not drawn)	-8.4
CCc1ccccc1NC(=O)C1=C(C)C(=O)OC12CCN(Cc1ccccc1)CC2	183.6
O=C(C1CCCCC1)N1CCC2(CC1)Nc1ccccc1-n1cccc12	20.7
O=C(c1ccccc1N1CCS(=O)(=O)CC1)N1C[C@H]2CC=CC[C@H]2C1	-1.4
CO[C@@H]1CN(C)C(=O)c2ccc(NC(=O)Nc3cc(F)ccc3F)cc2OC[C@H](C)N(C(=O)c2ccccn2)C[C@H]1C	48.4
CN1C(Cn2cccn2)CC2CN(CC3CCOC3)CCC21 (stereo not drawn)	-42.5
O=C(C1CCOC1)N1CC(=O)N(C2CCCCC2)CC(OCc2ccccc2)C1 (stereo not drawn)	9.5
COc1cccc(-c2nc3c(s2)CN(S(=O)(=O)c2ccc(F)cc2)CC3)c1	-78.6*
CCN1C(=O)CCC12CCC(NC(=O)c1cc(C)on1)CC2 (stereo not drawn)	-1.8
Cn1cc(-c2cc3n(n2)CCC(=O)N3CCCC(=O)NCc2cccnc2)c2ccccc21	105.0
CC(C)NC(=O)N1CC[C@H]2[C@@H]1CCN2Cc1cnn(C)c1	i
COCC(=O)NC[C@@H]1[C@H](c2ccccc2)[C@H](CO)N1C(=O)c1ccccc1	15.2
O=C(CC1N=C2c3ccccc3N=C(SCc3ccc(Cl)cc3)N2C1=O)NC1CCCCC1 (stereo not drawn)	-42.1
CO/N=C(/C(=O)NC1C(=O)N2C(C(=O)O)=C(CSc3nnnn3C)CSC12)c1csc(N)n1 (stereo not drawn)	11.8
NCC1Cc2c(ccc3cc(-c4ccncc4)ccc23)O1 (stereo not drawn)	-85.6*
O=C(Nc1ccc(F)cc1)c1nc[nH]c1C(=O)NC1CCOc2ccccc21 (stereo not drawn)	-68.8
Cc1nn(-c2ccccc2)nc1C(=O)Nc1ccc2c(c1)OCCO2	6.7
COCCN1C(=O)C2N(c3cccc(C)c3C)C(=O)C3CC(=O)OC32C1CC(C)=O (stereo not drawn)	224.5
Cc1ccc(C2(O)CCN(C(=O)c3ccc(Cn4cccn4)o3)CC2)nc1	7.3
CC(=O)N1CC[C@@]2(C(=O)N3CCCC3)CCN(S(=O)(=O)c3ccccc3)CC[C@H]12	9.3
CN1CCN(C(=O)c2ccnc(-c3cccc4cnccc34)c2)CC1	-0.4
CN(C)S(=O)(=O)N1CCCC(c2nccnc2-c2ccc(F)cc2)C1 (stereo not drawn)	-0.2
CN1C(=O)c2cc(NC(=O)C3CCOCC3)ccc2OC[C@H]2O[C@@H](CC(=O)NCC3CCCCC3)CC[C@H]21	11.5
COc1ccc(/C=C(\NC(=O)c2cccs2)c2nc3ccccc3[nH]2)cc1OC	26.2
O=C(Nc1ccc(-c2ccccc2)cc1)[C@@H]1[C@@H](CO)[C@@H]2Cn3c(cccc3=O)[C@@H]2N1CC1CCOCC1	-6.3
COCC1CN(C(=O)Cc2cccs2)Cc2cncn2C1 (stereo not drawn)	42.8
COc1ccc(C[C@@H]2CCc3cnnn3COCCNC2=O)cc1	-14.9
COc1cc(COC2CN(C(=O)c3c4c(nn3C)CCCC4)CC(=O)N(C(C)C)C2)cc(OC)c1 (stereo not drawn)	-43.5
Cc1ccc(N(C(=O)c2ccccn2)C2(C(=O)Nc3c(C)cccc3C)CCCCC2)cc1	3.4
CN(C)CC(=O)N1CCc2sc(C(=O)Nc3ccc(Cl)cc3)cc21	-0.5
C/C=C/CC(=O)NC1CCN(Cc2cccc(O)c2)CC1	-5.9
CN1CCN2C[C@@H](NC(=O)c3ccc(N4CC(=O)NC4=O)cc3)C[C@H]2C1	2.8

# (list continues)
mol	Tg IFNy HTS
CN1C[C@@H](NC(=O)c2cccs2)C[C@H]1C(=O)NCCc1ccccc1Cl	-3.1
COc1ccc2sc(NC(=O)c3ccnn3C(F)F)nc2c1	183.1
Cc1ccc(S(=O)(=O)Nc2ccc3c(c2)CCC(=O)N3CC(C)C)c(C)c1	-85.9*
COCC(=O)N1CCc2cc(C(=O)O)c(-c3ccncc3)nc2CC1	-4.4
CCn1cc(CN2CCC(c3cc(=O)[nH]c(-c4ccc(OC)cc4)n3)CC2)cn1	38.7
CN1c2ccc(Br)cc2[C@@H]2[C@@H](CCN2C(=O)Nc2cccc(F)c2)[C@@H]1CO	18.4
COc1ccc(-c2cc(=O)oc3cc(OC(C)C(=O)O)ccc23)cc1 (stereo not drawn)	6.5
CNC(=O)c1cnc(C)nc1CCNC(=O)CC1(c2ccc(C)cc2)CCOC(C)(C)C1 (stereo not drawn)	15.7
OC1(Cn2ccnc2)CCN(c2nccc(CCC(F)(F)F)n2)CC1	-5.2
c1cc(CNc2ccc3c(c2)OCCO3)ccn1	i
c1coc(-c2nc(NCC3Cc4ccccc4O3)ncc2-c2ccncc2)c1 (stereo not drawn)	5.4
CN(C)CCN1C(=O)CCC12CCN(c1ccc(C#N)cn1)CC2	0.8
COc1ccc2[nH]c(-c3nc(CCN(C)C(=O)c4ccncc4)no3)cc2c1	101.6
CC(c1ccc(-c2ccc3sc(N)nc3c2)cc1)N1CCOCC1 (stereo not drawn)	137.8
Cc1cccc(Nc2nc(C(=O)Nc3cc(F)ccc3F)nc3ccccc23)c1	-12.4
Cc1cccnc1CN1CCN(Cc2sccc2C)CC1	-3.3
Cc1oc2c(O)c(O)ccc2c(=O)c1-c1ccccc1	43.3
Cn1cnc2cc(-c3nc(C4(c5ccc(F)cc5)CCOC4)no3)cnc21 (stereo not drawn)	1.9
Cc1c(Cl)c(C(=O)N2CCCC3(CC2)CN(C)C(=O)O3)nn1C (stereo not drawn)	5.9
Clc1ccc(-n2nnnc2CC2N(c3ccccc3)CCN2c2ccccc2)cc1	24.8
CC(C)Cc1ncc2c(n1)CN(C(=O)c1ccc(=O)n(C)n1)C2	-3.7
Cc1nn(CC(=O)NCc2ccccn2)c(=O)c2nc(-c3ccccc3)sc12	-42.5
Cc1ccc(NS(=O)(=O)c2ccc3[nH]c4c(c3c2)CCCCC4)nc1	26.0
CCNC(=O)[C@@H]1C[C@H](N)CN1C(=O)C1(c2ccc(OC)cc2)CCCC1	-50.4
C=CCN1C(=O)COC2(CCN(C(=O)Cc3ccsc3)CC2)C1C (stereo not drawn)	-3.1
O=C(c1ccccc1)c1ccc(O)c(C(c2ccccc2Cl)N2CCCCC2)c1O (stereo not drawn)	-96.8*
Cc1ccc(CN(C(=O)c2cccc(OCC(N)=O)c2)C2CCCC2)s1	-16.4
O=C(C1CN(Cc2cccs2)CC12CCOCC2)N1CCCC1 (stereo not drawn)	1.3
CCCN1C[C@@H](C)[C@H](OC)CN(C)C(=O)c2ccc(NS(=O)(=O)c3cn(C)cn3)cc2OC[C@@H]1C	10.0
O=C(C[C@H]1CC[C@H]2[C@@H](COC[C@@H](O)CN2C(=O)Nc2cc(Cl)cc(Cl)c2)O1)N1CCOCC1	-15.2
Clc1cc2c(cc1-c1nccn1-c1ccc(Oc3nn[nH]n3)cc1)OCO2	2.3
Cc1noc(C)c1CC(=O)NCc1ccccc1-n1ccnc1C	0.9
CCOc1ccc(C(=O)NCCc2csc(-c3ccc(Cl)cc3)n2)cc1OCC	41.8
CCc1ccccc1NC(=O)Cn1c(=O)cc(C(=O)N2CCc3ccccc3C2)c2ccccc21	1.2
O=C1[C@@H]2C[C@H](O)CCN2C(=O)CN1CCc1ccccc1Cl	1.7
COc1ccc(S(=O)(=O)N2C[C@@H](O)COC[C@@H]3O[C@@H](CC(=O)N[C@H]4CCN(Cc5ccccc5)C4)CC[C@H]32)cc1	7.7
CC(C(=O)Nc1ccc(-c2cccc(F)c2)cc1)n1ccnc1 (stereo not drawn)	85.1
COCCN1C(=O)CC2C1CCN2C(=O)c1csnn1 (stereo not drawn)	5.3
O=C(C1CC1)N1CC[C@H]2[C@H](CO)Nc3ccc(Br)cc3[C@H]21	12.2
Cc1c(NC(=O)c2cc3c(s2)CCCC3)cccc1-c1cn(C)c(=O)c(Nc2ccc(C3C(=O)N(C)CCN3C)cc2)n1 (stereo not drawn)	104.1
COc1ccc2c(c1)NC1(CCN(S(=O)(=O)c3ccc(OC)c(Cl)c3)CC1)c1cccn1-2	-4.5
O=C(c1ccco1)N1Cc2ccccc2C2(CCN(c3cnccn3)CC2)C1	13.3
Cc1ccc(-c2nnc(CN3CCCCC3c3ccccn3)o2)n1C (stereo not drawn)	-7.2
CN1CC2(CCCCN2C(=O)Cc2ccccc2)CC1=O (stereo not drawn)	16.9
COCCN1C(=O)N(CC(C)C)C(=O)C12CCN(Cc1ccncc1)CC2	6.9
Cn1c(=O)c(-c2nc(-c3ccc(Br)cc3)no2)c(O)c2ccc(F)cc21	41.3
CC(C)c1ccc(S(=O)(=O)N2CC3CCC2C3OCCN(C)C)cc1 (stereo not drawn)	-26.6
CCN1CCN(Cc2ccc(O)c(C)c2)C(C)C1=O (stereo not drawn)	-3.5

# A draw from above in order of count of non-hydrogen atoms, lowest first.
mol	Tg IFNy HTS
COc1ccc2sc(NC(=O)c3ccnn3C(F)F)nc2c1	183.1
N#C[C@@H]1[C@@H](c2ccccc2)[C@@H](CO)N1S(=O)(=O)c1cccc(F)c1	12.7
CCC(=O)N[C@@H]1CC[C@H](CC(=O)NCc2ccccc2F)O[C@H]1CO	11.3
COc1ccc(-c2nc(C)c(CCNC(=O)c3ccc(C)cc3)s2)cc1	i
Cc1ccc(S(=O)(=O)Nc2ccc3c(c2)CCC(=O)N3CC(C)C)c(C)c1	-85.9*
CCCN1C[C@@H](C)[C@H](OC)CN(C)C(=O)c2ccc(NS(=O)(=O)c3cn(C)cn3)cc2OC[C@@H]1C	10.0
CO[C@@H]1CN(C)C(=O)c2ccc(NC(=O)Nc3cc(F)ccc3F)cc2OC[C@H](C)N(C(=O)c2ccccn2)C[C@H]1C	48.4

# Going on with the list.
mol	Tg IFNy HTS
O=S(=O)(c1ccccc1)N1CCCCN2[C@H](CO)[C@@H](c3ccc(C#CC4CCCC4)cc3)[C@H]2C1	-57.9
Cc1ccc(CN2CCCC3(CCN(CC4CC4)CC3)C2)cc1	-13.1
CCN(C(=O)c1ccn(-c2ccc3ccccn23)n1)C(C)C	-4.2
CCN1c2ccc(C)cc2C(=O)NC12CCN(C(=O)c1ccc(C)cc1C)CC2	-36.8
CC(=O)OCC(=O)[C@@]1(O)CC[C@H]2[C@@H]3CCC4=CC(=O)CC[C@]4(C)[C@H]3[C@@H](O)C[C@@]21C	-13.4
Cc1ccc(F)c(CN2C[C@@H](C(=O)NCC3CCOCC3)[C@@H]3OCC[C@H]32)c1	9.6
CC[C@H]1C[C@@H](NC(=O)c2ccccc2)C[C@@H](c2cnc(-c3ccccn3)nc2)O1	1.3
COc1cccc(C2Nc3ccccc3C(=O)N2NS(=O)(=O)c2ccc(C)cc2)c1O (stereo not drawn)	41.4
CC(C)(C)C(=O)Nc1ccc(C(=O)Nc2nccs2)cc1	305.6
Cc1ccc(C(C)NC(=O)CNCc2cc(F)ccc2F)cc1 (stereo not drawn)	-4.1
COCC#Cc1ccc([C@H]2[C@H]3CN(Cc4cccnc4)CCCCN3[C@H]2CO)cc1	-4.4
Cn1cnc2c(NCc3ccccc3)nc(NCCO)nc21	6.7
Cc1ccc(-c2cc3c(=O)n(Cc4nc(-c5cccc(Cl)c5)oc4C)ccn3n2)cc1	1.1
CNC(=S)N(C)NC(=S)Nc1ccc(F)c(Cl)c1	95.7
